Screens: PubChem BioAssay, National Center for Advancing Translational Sciences (NCATS)
gsp antagonist: antagonists of gsp mutant (McCune-Albright syndrome); gsp-mutant cells, cAMP HTRF, 30 min; control for the full effect not named in the record; Potency, µM (titrated, usually from 76.9 µM), without a hit: at the top dose activity change, negative = inhibition, hits mostly inhibitors; 0.4% of 340,000 active; AID 624288; active = falling curve of any shape with a large fitted effect; inconclusive = falling curve, mostly with a smaller effect; inactive = flat or rising curve; cell line not stated here;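 also: intracellular cAMP measured with PDE inhibitor Ro 20-1724 present during compound exposure; potency is read from the fitted curve at half-maximal effect; % is scaled to controls: 0 for no effect and ±100 for the full control effect; nearly all actives have a fitted effect of over 65% in size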
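HTRF cAMP read-out (cAMP-d2 plus anti-cAMP antibody-K in lysis buffer, 30 min RT). Before lysis, cells are exposed to compounds with […] for 30 min at 37C in DPBS containing Ca/Mg, BSA and Tween 20.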
TRPML1 inh: blocks the human TRPML1 channel; 0.02% of 390,000 active; TRPML1-inducible cells, Ca2+ dye fluorescence, FDSS; active compounds read low; inhibition of EC80 agonist-evoked calcium signal; activity change, negative = inhibition, % (no concentration beside the values); in the data active means activity change below about -50%; inconclusive means about -30% to -50%; inactive means above about -30%;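 also: stimulus is agonist 54-4 at its EC80 concentration; % is scaled to controls: 0 for no effect and ±100 for the full control effect; compound concentration not given in the record; the text of the record puts the active cut at -80%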
Target sequence (Q9GZU1 whole entry, looked up): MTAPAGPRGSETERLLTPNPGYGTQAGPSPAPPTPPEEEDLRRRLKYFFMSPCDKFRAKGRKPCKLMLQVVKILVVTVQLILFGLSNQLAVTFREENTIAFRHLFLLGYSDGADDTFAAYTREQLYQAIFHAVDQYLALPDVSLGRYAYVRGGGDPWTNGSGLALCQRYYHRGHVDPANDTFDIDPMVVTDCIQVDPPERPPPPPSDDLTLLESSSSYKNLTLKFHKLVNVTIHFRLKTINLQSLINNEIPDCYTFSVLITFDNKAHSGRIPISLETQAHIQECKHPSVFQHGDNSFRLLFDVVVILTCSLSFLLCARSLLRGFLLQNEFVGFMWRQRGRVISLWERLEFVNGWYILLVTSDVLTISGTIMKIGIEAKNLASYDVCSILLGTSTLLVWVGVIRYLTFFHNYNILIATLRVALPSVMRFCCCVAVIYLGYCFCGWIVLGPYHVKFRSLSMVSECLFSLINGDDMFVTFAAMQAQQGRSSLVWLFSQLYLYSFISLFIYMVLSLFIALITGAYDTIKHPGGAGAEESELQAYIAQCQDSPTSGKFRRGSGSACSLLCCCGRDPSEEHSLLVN
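Calcium fluorescence in TRPML1-DL cells induced overnight with Tet: a 110 s read after compound pin addition, then a 110 s antagonist read after challenge with 54-4 at 4 uM final (EC80).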
ClpP mod: qHTS Assay for Activators of ClpP; purified B. subtilis ClpP, FRET peptide cleavage, 20 min; Potency, µM (series often up to 57.5 µM), without a hit: at the highest dose activity change, negative = active; 1.9% of 340,000 active; active = well fitted falling curve with a large enough effect; inconclusive = small, poorly fitted or top-dose-only effect; inactive = no such curve, though single readings can be large or run the other way; also: potency is read from the fitted curve at half-maximal effect; the source files actives as falling curves though it sought activators and does not explain the sign; nearly all actives have a fitted effect of over 65% in size; many hits overshoot -100%
Target sequence (P80244 whole entry, looked up): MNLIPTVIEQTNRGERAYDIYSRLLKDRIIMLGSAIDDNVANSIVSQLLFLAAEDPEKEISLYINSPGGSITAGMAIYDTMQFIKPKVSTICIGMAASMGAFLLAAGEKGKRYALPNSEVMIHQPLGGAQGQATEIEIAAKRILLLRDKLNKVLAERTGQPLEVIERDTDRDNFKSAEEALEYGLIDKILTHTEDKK
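Buffer: 100 mM Tris/HCl pH8, 100 mM KCl, 0.05% low protease BSA, 2.5% glycerol, 0.01% Tween-20. ClpP 10 microg/mL final; 20 min RT; delta FRET normalized to ADEP and DMSO controls.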
gsp ag: gsp mutant agonism | Potency, µM (top dose mostly 76.9 µM), for inactives: at the top dose activation (cAMP increase), usual class: activators | 0.13% of 340,000 active | gsp mutant cells, cAMP HTRF, 30 min; control for the full effect not named in the record; active = well fitted activation curve with a large enough effect; inconclusive = small, poorly fitted or top-dose-only effect, or another doubt; inactive = no such curve, though single readings can be large or run the other way; cell line not stated here;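 also: phosphodiesterase inhibitor Ro 20-1724 added with compounds to block cAMP breakdown; potency is read from the fitted curve at half-maximal effect; nearly all actives have a fitted effect of over 60% in size; about a fifth of the inactives were tested at one dose only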
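Cells stably selected in G418 were plated at 2000/well, grown 16-24 hr, then given compounds in DMSO with the PDE inhibitor […] (300 uM solution added) for 30 min at 37C; cAMP was read by HTRF.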
TRPV1 PAM: human TRPV1 potentiation; 0.02% of 320,000 active; AID 540277; TRPV1-expressing cells, Fluo-8 calcium influx, capsaicin EC20 potentiation; host cell line not named in the record; control for the full effect not named in the record; Q8NER1; potentiation, % at 8.33 µM; active means potentiation above 80%; inconclusive means 30% to 80%; inactive means below 30%; also: 0% is about no effect
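TRPV1-expressing cells were cultured overnight at 35.5C and loaded with Fluo-8 calcium dye for 40 to 90 min at room temperature. After a 10 s baseline, compound was added and calcium influx was read kinetically for 3 min (ex 480/em 520 nm).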
Sfp PPTase inh: blocks B. subtilis Sfp PPTase activity | Potency, µM, without a hit: max response, negative = inhibition, usual class: inhibitors | Biochemical Sfp PPTase activity, qHTS | Q9F4F7 | 3.5% of 310,000 active; active = well fitted inhibition curve with a large enough effect; inconclusive = small, poorly fitted or top-dose-only effect, or another doubt; inactive = no such curve, though single readings can be large or run the other way;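 also: the enzyme is Sfp with the accession as filed and its product quenches rhodamine fluorescence; potency is read from the fitted curve at half-maximal effect; 0% = enzyme reaction without inhibitor and -100% = no enzyme wells; top concentration of the series not given in the record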
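Buffer: 50 mM Hepes-Na pH 7.6, 10 mM MgCl2, 0.01% Nonidet P-40, 0.01% BSA. Enzyme 15 nM, pre-exposed to compound 15 min; substrates then added and fluorescence change tracked over 30 min.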
Menin MLL FP FL: displaces fluorescein MLL peptide from human menin | Fluorescence polarization, fluorescein-MLL peptide displacement from menin | FP activity change, % at 61.4 µM | 290,000 tested, under 10 active | AID 1766; inconclusive = falling polarisation curve, or a change in total fluorescence; inactive = total fluorescence flat and polarisation flat or rising; no compound was filed as active; the % refers to the polarisation; negative = inhibition;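 also: % of control where 0% means no effect; inhibitors lower the polarisation; unlabelled MLL peptide was the positive control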
* marks the source's active call; other numbers are inactive results; ? = inconclusive; . = no result given; & = joins results of further samples; ! = repeats disagree; [ ] = remark or other dose. Random draw from the library, and some 4.9% of all compounds hit somewhere here.

SMILES	gsp antagonist	TRPML1 inh	ClpP mod	gsp ag	TRPV1 PAM	Sfp PPTase inh	Menin MLL FP FL
O=C(c1cnn2c(C(F)(F)F)cc(-c3ccc(Br)cc3)nc12)N1CCOCC1	6%	0	-2.3%	-3%	28	-1%	2.8
C[C@H](CO)N1C[C@H](C)[C@@H](CN(C)C(=O)c2cccc(F)c2)Oc2cc(-c3cncnc3)ccc2S1(=O)=O	.	0	-0.6%	6%	.	.	.
O=c1cc(Cl)[nH]c(=O)n1CCNc1ncc(C(F)(F)F)cc1Cl	-2%[15.4 µM]	13	-2.6%	5%	.	5%	?
COc1ccc(C2C(C(=O)NCc3ccco3)c3ccccc3C(=O)N2C)cc1 (stereo not given)	4%	-2	.	12%[15.4 µM]	2	9%	0.8
O=C(N/N=C1\CC(c2ccccc2)Oc2ccccc21)c1ccccn1 (stereo not given)	-18%	-7	-11%	16%[15.4 µM]	10	-1%	1.8
C[C@@H](NC(=O)c1nc[nH]c1C(=O)N(C)Cc1ccccc1)c1ccccc1	7%	6	1.6%	.	5	.	.
N#Cc1ccc2c(c1)NC(=O)C1CCCN21 (stereo not given)	-46%	43	.	31%[15.4 µM]	2	-5%	2.5
CCCNC(=O)C(Cc1ccccc1)NC(=O)c1ccc(C(F)(F)F)cc1 (stereo not given)	12%	3	2.2%	1%	0	.	.
CCOC(=O)C1=C(C)Nc2ccccc2N/C1=N\S(=O)(=O)c1ccccc1	-24%	-15	-0.3%	1%[15.4 µM]	-5	.	.
CC(=O)NO	-1%	17	1.9%	.	.	-42%	-1.5
CC1(C)CC(=O)C(C=Nc2ccccc2C(=O)O)=C(O)C1	13%	24	48%	-21%	-8	-11%	0.4
CCc1ccc(-c2cc(C(F)(F)F)n3nc(C(=O)Nc4c(C)nn(Cc5ccccc5Cl)c4C)cc3n2)s1	5%	-10	?	-8%	-7	10%	10.0
Cc1cc(C)c(C)c(S(=O)(=O)N2CCN(CC(=O)NC(=O)NCc3ccccc3)CC2)c1C	-9%	30	-1.4%	13%	-4	-9%	1.8
CCC(=O)c1ccc(N2CCN(C(=O)c3ccccc3Br)CC2)c(F)c1	-21%	-2	-3.0%	-16%[15.4 µM]	2	-9%	-0.7
O=C(CNC(=O)c1ccc(OC(F)F)cc1)NC1CCCc2ccccc21 (stereo not given)	-10%	11	0.6%	30%	-6	0%	.
COc1cc(C(=O)O/N=C2\CCCc3c2ccc(OC)c3[N+](=O)[O-])cc(OC)c1OC	1%	13	-0.9%	-11%	-9	4%	0.7
CCCCCCn1c(CN2CCN(C)CC2)nc2c1c(=O)n(C)c(=O)n2C	12%	-1	-1.7%	7%	-12	3%	0.0
CCOc1cc(N2CCOCC2)c(OCC)cc1NC(=O)C(NC(=O)c1c(F)cccc1F)C(C)C (stereo not given)	-14%	24	-1.7%	-45%[inhibitor]	.	.	.
CCCCn1c(N)c(N(CCOC)C(=O)c2ccc3c(c2)C(=O)N(c2ccccc2C)C3=O)c(=O)[nH]c1=O	11%	-8	-0.9%	-2%	2	.	.
CN(CCCNC(=O)CCC(=O)N1CCOc2ccc(Cl)cc21)Cc1ccccc1	-11%	7	-2.4%	-33%[inhibitor]	1	15%	-8.3
Cc1c(Cc2ccccc2)c(=O)oc2cc(OC(C)C(=O)NCC3CCC(C(=O)O)CC3)c(Cl)cc12 (stereo not given)	?	.	5.2%	.	-15	3%	7.7
Cn1c(=O)c2c(ncn2CC(=O)Nc2cc(Cl)c(Cl)cc2Cl)n(C)c1=O	.	.	.	.	2	3%	1.6
C=CCN(C)CC/C=C1\c2ccccc2CSc2ccccc21	5%	-2	3.4%	-3%	-4	11%	0.2
Cc1cc(C)c(NC(=O)CN(C)C(=O)CCC(=O)c2ccc(C)s2)c(C)c1	-2%	-4	-2.4%	43%	1	.	.
COc1ccc(-n2c(-c3ccc(Cl)cc3)c[nH]c2=S)cc1	-19%	-1	-6.4%	7%	15	56µM*	-2.5
Cc1ccc(-c2nc3cnccn3c2Nc2c(C)cccc2C)o1	1%	15	-13%&-7.7%	11%	.	0.5µM*	7.7
CN(Cc1cccc(F)c1)C(=O)c1ccc(S(=O)(=O)N2CCOCC2)cc1	3%	8	-0.9%	?	-4	.	.
CC1CC(C)(C)CC2(C1)NC(=O)N(CC(=O)Nc1cc([N+](=O)[O-])ccc1F)C2=O (stereo not given)	-1%	20	-0.5%	-3%	-1	.	.
O=C(C1CCN(S(=O)(=O)c2cccc3cccnc23)CC1)N1CCn2c1nc1ccccc12	-14%	-3	-0.2%	-8%	-1	-1%	3.3
CCc1nc(NC(C)C)c2oc3ccccc3c2n1	6%	17	-9.1%	0%	-22	23%	5.1
Cc1cc(-c2ccc(Cl)s2)n[nH]1	5%	-6	-0.8%	-1%[15.4 µM]	-4	7%	-2.1
Nc1nonc1-n1nnc(C(=O)N/N=C\c2ccncc2)c1CN1CCCCC1	-11%	6	1.9%	-25%	-1	21%	1.9
CN(Cc1nc2c(s1)CCCC2)C(=O)CCc1nnc(-c2ccccc2)o1	-5%	19	.	0%[15.4 µM]	18	-2%	2.1
Cc1nc2nc(SCC(=O)NCc3ccco3)nn2c(C)c1Cc1ccccc1	0%	-24	-1.9%	-10%[15.4 µM]	5	50µM*	4.4
O=C(Nc1ccccc1F)c1ccc(COc2ccc(Cl)cc2Cl)o1	-11%	32	-11%	6%	1	?	7.0
Cc1csc(=O)n1CCC(=O)OCc1nnc(-c2ccccc2)o1	-8%	-10	.	-13%[15.4 µM]	12	.	.
CC(C)CN(C(=O)COC(=O)c1cccnc1Cl)c1c(N)n(Cc2ccccc2)c(=O)[nH]c1=O	0%	-13	28µM*	-8%	-14	.	.
O=c1cc(NCc2ccccc2)[nH]c(=O)[nH]1	17%	-16	0.1%	2%[15.4 µM]	.	.	.
COc1ccccc1-n1cc2ccc([N+](=O)[O-])cc2n1	-3%	-8	-1.1%	0%	.	.	.
CC(C)[C@H](NC(=O)c1ccccc1Cl)C(=O)OCc1cc([N+](=O)[O-])cc2c1OCOC2	-22%	-2	22µM*	-7%	24	-5%	-1.1
COc1ccc(CN(C)CC(=O)Nc2ccccc2C(F)(F)F)cc1	-6%	7	0.1%	24%	-5	6%	-0.3
O=C(c1cc(COc2cccc3cccnc23)on1)N1CCC[C@H]1CO	.	11	-19%	-39%[inhibitor]	.	.	.
Cc1csc(=O)n1CCC(=O)OCC(=O)Nc1cc(Cl)ccc1[N+](=O)[O-]	-11%	-16	.	-2%[15.4 µM]	-8	.	.
CN(CCOCCOc1ccc2ccccc2c1)Cc1ccccc1	4%	1	-0.6%	-4%	-2	1%	-2.7
Cc1cc(=O)oc2cc(OC(C)C(=O)NCCCN3CCCC3=O)c(Cl)cc12 (stereo not given)	-3%	8	3.4%	38%	-1	16%	.
CCn1nc(C)c(/C=N/NC(=O)Cn2nccc2C)c1C	12%	-5	0.8%	-14%[15.4 µM]	-13	3%	.
COc1cc([C@@H]2CC=C(C(=O)O)[C@H](c3ccccc3)N2S(=O)(=O)c2ccc(C)cc2)cc(OC)c1OC	2%	-17	-1.8%	-29%	25	.	.
Brc1ccc(-n2cccc2/C=N/n2cnnc2)cc1	14%	-6	-0.6%	-28%	12	5%	-0.1
COc1cc(C)c(Cl)cc1S(=O)(=O)NCCN1CCOCC1	-1%	-15	-1.8%	3%	17	-4%	2.0
c1ccc(C(c2c[nH]c3ccccc23)c2c[nH]c3ccccc23)nc1	6%	3	-2.3%	-14%	2	15%	3.5
O=C(c1cccs1)N1CCN(Cc2nc(-c3ccccc3)no2)CC1	.	3	0.4%	-28%	.	.	.
O=c1[nH]c(=O)n([C@H]2C[C@H](O)[C@@H](CO)O2)cc1I	0%	18	0.4%	.	3	.	.
O=C1CN(C(=O)NCC(=O)N[C@@H](Cc2ccccc2)C(=O)O)c2ccccc2N1	5%	3	-0.8%	-2%	-21	16%	4.3
COC(=O)c1ccc(CSCc2ccc(C(=O)OC)o2)o1	-1%	8	-1.2%	-32%[15.4 µM]	-6	4%	-1.8
COc1cccc(NC(=O)C2C3C=CC4(O3)C2C(=O)N(C(C)C)C4C(=O)NC2CCCCC2C)c1 (stereo not given)	-1%	-2	-0.3%	29%	-11	14%	1.7
CSc1nc(N)c(C(=O)NC2CCCCC2)s1	-8%	7	1.7%	28%	-10	1%	-3.2
CCOC(=O)CC(=O)c1sc2c(c1N)c(=O)[nH]c(=O)n2-c1ccc(OC)cc1	-4%	21	-0.5%	?	-25	7%	?
C/C(=N\NC(N)=O)c1ccc(-n2ccnc2)cc1	2%	16	.	-24%	2	18%	-0.5
CCOc1ccc(NC(=O)CN(C)C(=O)CC(NC(=O)c2ccccc2)c2ccccc2)cc1OCC (stereo not given)	-22%	5	-1.0%	-46%[inhibitor]	15	.	.
O=c1[nH]cnc2c1C(c1ccccc1[N+](=O)[O-])c1c(nc[nH]c1=O)O2	6%	6	-5.1%	-6%	-18	-4%	3.7

Other results follow:
SMILES	gsp antagonist	TRPML1 inh	ClpP mod	gsp ag	TRPV1 PAM	Sfp PPTase inh	Menin MLL FP FL
C[C@H](NC(=O)c1ccco1)C(=O)Nc1nc(-c2ccccn2)cs1	-8%	6	-2.0%	-24%	.	.	.
CCOC(=O)C1=C(CS(=O)(=O)c2ccccc2)NC(=O)NC1c1cc(OC)c(O)c(OC)c1 (stereo not given)	5%	42	-0.9%	0%	-5	3%	1.1
CCOC(=O)C1=C(C)NC(C)=C(C(=O)OCC)C1C(=O)OCC(=O)N1c2ccccc2CC1C (stereo not given)	11µM*!	-2&37	-15%	-18%&-5%	15	0%	-2.0
CCOC(=O)CSc1nc(=O)n2ccccc2n1	7%	11	.	?	-1	14%	0.0
Cc1cc(C)nc(SCC(=O)Nc2ncccn2)n1	.	.	.	.	0	11%	1.0
COc1ccc(Cc2nnc(SCC(=O)c3ccc4c(c3)OCO4)o2)cc1	2%	12	-1.0%	-41%[inhibitor]	-1	.	.
O=C1C=CC2(C=C1)O[C@H](Cc1ccccc1)[C@@H](Cc1ccccc1)O2	-3%	46	1.2%	-37%	.	.	.
